rRNA inh HTS: reduced GFP signal of wild-type E. coli, primary screen, bacterial rRNA inhibitor project, GFP/RFP fluorescence, OD600, single point. E. coli WT GFP vs humanized-ribosome RFP mutants, 24 h; active compounds read low; DMSO median 0, no signal -100. hit rate 1.6% among 350,000. GFP signal change (wild-type ribosome), % (no concentration beside the values);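 active means significant combined selectivity score with lowered wild-type GFP, culture density cut under 30%, mutant RFP and density less affected; inactive means any of these conditions unmet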; further: one replicate is shown; some compounds called inactive have numbers as strong as hits
Calb FLC: C. albicans growth inhibition with fluconazole, primary screen, CaCi-2 strain, Alamar Blue fluorescence. C. albicans CaCi-2 (fluconazole-resistant clinical isolate) + fluconazole, 48 h. growth inhibition, % (no concentration beside the values). hit rate 0.57% among 300,000;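 active means most replicates above 75%; inconclusive means exactly half above 75%; inactive means most below 75%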;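 further: all wells also contain fluconazole at 8 µg/ml as a sub-toxic cotreatment; 0% = median of DMSO wells and 100% = median of geldanamycin control wells; wells of about 8 µL received 7.5 nL stock; the first replicate is given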
MLL AF4-AF9 inh: inhibitors of AF4 peptide binding to AF9, primary screen, biochemical, AlphaScreen, biotin-AF4 peptide, FLAG-AF9, single point; Protein AF-9 (Homo sapiens), P42568; inhibition, % at 10 µM; hit rate 0.47% among 350,000;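 active means every replicate reaching a set inhibition limit, whatever the replicate mean, cut at about 25% in these data; inconclusive means mean inhibition reaches that limit but some replicates miss it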;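 further: 0% = plate neutral control median and 100% = total signal loss; the record names both 10 and 1 µM as test concentration; the first replicate is given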
Target sequence (P42568 whole entry, looked up): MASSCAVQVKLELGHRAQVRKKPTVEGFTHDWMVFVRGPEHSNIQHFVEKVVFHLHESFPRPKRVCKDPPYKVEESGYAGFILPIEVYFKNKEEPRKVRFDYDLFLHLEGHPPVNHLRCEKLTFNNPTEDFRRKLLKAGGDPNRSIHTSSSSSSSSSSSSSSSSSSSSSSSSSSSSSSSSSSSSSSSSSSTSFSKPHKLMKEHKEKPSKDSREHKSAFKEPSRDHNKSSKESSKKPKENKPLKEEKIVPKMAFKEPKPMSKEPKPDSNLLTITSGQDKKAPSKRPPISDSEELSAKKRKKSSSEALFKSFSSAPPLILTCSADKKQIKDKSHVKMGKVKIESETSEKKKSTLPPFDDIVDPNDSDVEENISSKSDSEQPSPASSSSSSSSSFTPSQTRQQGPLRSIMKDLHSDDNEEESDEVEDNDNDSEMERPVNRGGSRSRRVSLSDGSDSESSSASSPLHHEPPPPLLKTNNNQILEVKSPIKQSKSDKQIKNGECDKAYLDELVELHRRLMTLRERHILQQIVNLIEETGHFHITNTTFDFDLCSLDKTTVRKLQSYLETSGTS
T cruzi repl: inhibitors of intracellular T. cruzi growth, primary screen, luminescence, NIH3T3 host cells; T. cruzi beta-gal in NIH3T3, 90 h; inhibition, % (test concentration not listed); hit rate 1.4% among 300,000;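 active means mean inhibition across valid replicates above about 55%, limit read from the data; inconclusive means mean below that limit but half or more replicates reach it; inactive means mean below it, under half of replicates reach it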;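 further: signal also drops with host cell toxicity which is not excluded here; 0% = plate median of DMSO wells and 100% = zero luminescence signal; higher percent means less beta-gal luminescence so fewer parasites; stock transfer was 50 nL into about 50 µL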
RanGTP-Impb inh: inhibitors of RanGTP-importin-beta interaction, primary screen, biochemical, FRET, CFP-Ran, YFP-importin-beta, homogeneous; cell-free CFP-Ran/YFP-importin-beta FRET ratio; inhibition, % (test concentration not listed); hit rate 1.1% among 300,000;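 active means most replicates above 15%; inconclusive means exactly half above 15%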;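 further: 0% = DMSO wells and 100% = Ran loaded with GDP instead of GTP; wells of about 40 µL received 100 nL stock; the first replicate is given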
A1 inh: caspase 3/7 activation in MEF A1-2A-BIM cells, primary screen, A1 inhibitor project, cell-based, luminescence, HTS | Caspase-Glo 3/7 luminescence, 3 h; percent of clofoctol response, vehicle zero | caspase activation, % (concentration not given with the values) | hit rate 0.066% among 330,000;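 active means over half of replicate activation scores above 10%, or exactly half above 10 with the replicate mean above 10; inconclusive means replicate mean below 10 yet half the replicates above 10; inactive means over half of replicates below 10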;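 further: wells of about 30 µL received 50 nL stock; many hits fall short of the cut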
Vif A3G: inhibitors of Vif binding to APOBEC3G peptide, primary screen, biochemical, TR-FRET, GST-Vif 1-94, biotin-A3G peptide, dose response retest (AID 1117319) | Virion infectivity factor (Human immunodeficiency virus type 1 group M subtype B (isolate … | TR-FRET GST-Vif / biotin-A3G peptide binding; higher % means a stronger effect; test concentration not given here; strong numbers were not always called active | inhibition, %, or IC50 in µM where a hit was titrated | hit rate 0.57% among 260,000;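 active means above the screen mean plus three standard deviations and confirmed in dose response; inconclusive means results disagree or hit not tested in dose response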;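 further: Vif residues 1-94 fused to GST binding biotinylated APOBEC3G peptide 110-148; 0% = full assay without inhibitor and 100% = GST in place of GST-Vif; retest series ran down from 100 µM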
Beta apoptosis: inhibitors of cytokine-induced beta cell apoptosis, primary screen, luminescence; INS-1E cytokine-induced death, ATP luminescence, 48 h; percent of positive-control rescue, neutral wells zero; protection from apoptosis, % (concentration not given with the values); hit rate 0.8% among 300,000; AID 435005, 2010;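 active means all replicates at 75% or more, or half of them and the mean; inconclusive means half reach 75% but not the mean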;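 further: 0% = cytokine-treated negative control wells and 100% = positive control rescue; higher means more ATP so stronger rescue from cytokine killing; wells of about 40 µL received 100 nL stock; the first replicate is given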
rRNA inh HTS OD600: further read-out of rRNA inh HTS, marked with its call; OD600 change, %; measured here: OD600 growth;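 optical density of the mix in the first replicate; 0 = DMSO median and -100 = no signal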
rRNA inh HTS RFP: second read-out of rRNA inh HTS, no call of its own (marks repeat the call); RFP signal change, %; measured here: RFP humanized mutant strains;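 first replicate; 0 = DMSO median and -100 = no signal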
* = called active by the depositor; ? = inconclusive; . = not tested or not shown; & = joins results of further samples. An excerpt. The share of hits here may be higher or lower than overall.

Under each structure: rRNA inh HTS RFP	Calb FLC	rRNA inh HTS	MLL AF4-AF9 inh	A1 inh	RanGTP-Impb inh	Beta apoptosis	T cruzi repl	rRNA inh HTS OD600	Vif A3G
CC1CN(O)C2CCc3c(no[n+]3[O-])C12O (stereo not drawn)
  .	4	.	.	-0.6	3.0	-1	4	.	20%
O=C(CN1CCOCC1)c1ccc(Br)cc1
  0.0	0	6	0.0	2.1	4.8	-1	-13	-2	5%
O=c1c2ccccc2[nH]c(=S)n1-c1ccc(Br)cc1
  -1.1	-1	-3	-1.9	-0.1	-2.3	7	-28	-7	-5%
COc1ccc(NC2=NCCCS2)cc1OC
  0.2	-9	11	1.6	0.7	2.4	-4	11	13	1%
COc1cccc(C2C([N+](=O)[O-])=C(N)Oc3c2c(=O)oc2ccccc32)c1 (stereo not drawn)
  .	1	.	.	-0.3	-5.8	3	11	.	-2%
COc1ccc(-c2cc(C(=O)N3CCC4(CC3)OCCO4)c3ccccc3n2)cc1
  -2.1	-8	-3	0.4	-1.8	3.4	-1	-3	-12	.
CSc1ccc(CN2CCN(C(=O)COc3ccc(C)cc3)CC2)cc1
  6.2	-25	-43	4.0	0.5	5.4	-3	34	-67	8%
COc1ccccc1N1CCN(Cc2cccc(Br)c2)CC1
  4.1	1	-29	11	0.8	-3.9	-22	-10	-54	.
COC(=O)C1=C(N)OC(C)=C(C(C)=O)C12C(=O)N(C)c1ccccc12 (stereo not drawn)
  .	11	.	.	-0.3	?	-9	-2	.	7%
C[C@H]1[C@@H](c2ccccc2)O[C@@H](c2ccccc2Br)N1C
  3.8	1	6	-1.8	-0.6	1.4	-4	-17	4	.
CN1CCN(c2ccc3c(c2)S(=O)(=O)c2ccccc2C3=O)CC1
  -10	10	1	3.4	-0.5	-182	4	24	-1	.
COC(=O)C1=C(c2cccc(OC)c2OC)C[C@@H]2CC[C@H]1N2C(=O)NCCNC(C)=O
  -9.4	-6	3	-0.8	-0.9	-2.7	-7	-6	4	.
COc1cc(C(=O)N2C[C@H]3C[C@@H](C2)c2cccc(=O)n2C3)cc(OC)c1OC
  -1.4	-4	-3	-2.6	-1.2	-2.4	.	-16	0	.
Cc1cc(Cl)ccc1OCC(=O)O
  .	10	.	-2.7&-5.0	-0.4	9.5	.	-6	.	1%
CSc1ccc(CN2CCN(Cc3ccccc3Cl)CC2)cc1
  -2.9*	-1	-22*	9.5	-1.3	2.5	-2	24	-7.3*	7%
O=P(O)(O)Cc1c(Cl)cccc1Cl
  0.6	7	15	-2.6	-1.5	-1.7	-7	-5	14	.
COc1ccc(C(=O)C2CCCN(Cc3ccc(C)s3)C2)cc1OC (stereo not drawn)
  -1.2	-24	-4	-54	0.5	-4.0	-2	50	-4	4%
O=C1NC(=O)N(CCC2=CCCCC2)C(=O)/C1=C/c1cccs1
  .	-2	.	-2.5	1.6	-0.3	-2	8	.	17%
Cc1cccc(C(=O)Nc2ccc(Cl)cc2C(=O)c2ccccc2)c1
  .	?	.	.	1.3	-2.6	5	11	.	?
c1ccc2c(CNC3CCCCC3)c[nH]c2c1
  .	9	.	.	0.6	-3.3	115*	16	.	-7%
O=P(c1ccccc1)(c1nc2ccccc2s1)N1CCOCC1 (stereo not drawn)
  .	-12	.	.	-0.6	5.6	-1	-1	.	6%
CN(C)CCOC(=O)c1cn(Cc2ccccc2)c2ccccc12
  .	-13	.	.	0.3	3.4	6	34	.	6%
Cn1c(=O)cc(SCC(=O)N2CCC3(CC2)OCCO3)c2ccccc21
  .	-4	.	.	-0.2	-2.1	3	13	.	?
Cc1ccc(-n2c(O)c(C=NCc3cccnc3)c(=O)[nH]c2=O)cc1C
  -1.4	5	4	.	0.7	1.7	-12	-6	6	-3%
COC(=O)C1=C(c2c(C)noc2C)C[C@@H]2CC[C@H]1N2C(=O)NCc1ccc(C(F)(F)F)cc1
  -6.3	.	-3	-3.1	0.0	.	2	.	15	.
S=C(NC1CCCCC1)N1CCC(c2cnc[nH]2)CC1
  -0.3	-8	-4	-24	0.8	7.9	.	49	-8	.
O=c1[nH]c(=S)[nH]c(O)c1N=Nc1ccc(OC(F)F)cc1
  4.6	44	1	-1.2	-11	4.0	19	-16	5	.
CCOC(C(=O)OCC(O)CN(CC)CC)(c1ccccc1)c1ccccc1 (stereo not drawn)
  .	-5	.	.	1.0	-5.3	10	3	.	-3%
CC(=O)CC(c1ccccc1[N+](=O)[O-])c1c(O)c2ccccc2oc1=O (stereo not drawn)
  .	-3	.	-0.7	-0.7	-0.3	-2	-3	.	.
CC(=O)O[C@H]1CC[C@@]2(C)[C@H](C1)C(=O)C[C@H]1[C@@H]3CC[C@@H]4[C@@H](CN5C[C@@H](C)CC[C@H]5[C@@]4(C)O)[C@@H]3C[C@@H]12
  3.6	-7	13	-3.6	-0.8	-1.0	-2	0	-6	-2%
CCN1CCN(C(=O)Cc2coc3cc(C)cc(C)c23)CC1
  .	0	.	.	0.6	0.8	-1	10	.	11%
C=CCn1c(O)c(/C=C2/C=CC=N2)c(=O)[nH]c1=O
  15	37	16	0.2	1.2	-0.2	2	-9	17	12%
CCOC(=O)c1c(C)c(P(=S)(N2CCOCC2)N2CCOCC2)n(C)c1C
  .	1	.	.	-0.2	1.0	2	1	.	-3%
CCN(N=Nc1nonc1OC)c1nonc1OC
  .	4	.	.	0.7	5.9	5	-8	.	16%
COC(=O)C1=C(c2ccc(C(C)=O)cc2)C[C@@H]2CC[C@H]1N2C(=O)NCc1ccco1
  10	.	3	1.7	1.2	.	-1	.	7	.
CCCC1COC(Cn2cncn2)(c2ccc(Cl)cc2Cl)O1 (stereo not drawn)
  .	11	.	.	0.8	?	.	65*	.	-2%
CN1C(=O)NC(=O)/C(=C/c2ccc(C(=O)O)cc2)C1=O
  3.7	-4	6	-2.3	1.4	-0.9	-2	2	10	2%
COc1cc(/C=C/c2nc3ccccc3c(=O)n2-c2ccccc2O)ccc1O
  -3.5	13	-28	5.8	0.2	-1.5	-1	13	-32	0%
OC1/C(=C/c2ccc(C(F)(F)F)cc2)N2CCC1CC2 (stereo not drawn)
  2.3	-10	3	-2.5	2.5	-1.0	-4	-1	3	-2%
CCC(C)NS(=O)(=O)c1ccc(OCC(=O)N2CCN(CC)CC2)cc1 (stereo not drawn)
  .	-17	.	.	-0.9	-1.7	-6	17	.	15%
COc1ccccc1CN1CCN(Cc2ccc(Cl)cc2)CC1
  3.8	?	22	1.7	1.2	-2.0	-2	58*	6	.
O=Cc1cn(Cc2c(F)cccc2Cl)nc1-c1ccccc1
  2.7	-5	-9	-1.1	0.9	0.8	4	5	-13	.
O=C(Cn1cc(C(=O)c2ccccc2)c2ccccc21)NCc1ccco1
  .	-1	.	.	-0.1	0.1	0	-18	.	7%
CC(=O)OC1C2CCC1C(N1CCCCC1)CC2 (stereo not drawn)
  2.2	8	17	-7.5	-0.4	-3.0	.	3	10	-3%
COCc1cc(OC(=O)N(C)C)nc2c1c(C)nn2C
  0.8	-9	7	.	1.4	6.2	-5	-10	9	17%
O=C(COc1ccc(Cl)cc1)N(c1ccc(Cl)cc1)C1CN2CCC1CC2 (stereo not drawn)
  -9.4	9	-37	.	0.6	7.8	2	25	-39	-2%
COC(=O)C1=C(c2ccccc2)C[C@@H]2CC[C@H]1N2C
  -1.2	.	11	-21	-0.6	.	-3	.	13	.
CC(C)(C)C(=O)c1cn(Cc2ccccc2)c2ccccc12
  -3.0	-9	-20	5.2	0.7	1.3	3	6	-12	-7%
CCN(CC)S(=O)(=O)c1ccc(C(=O)NC2CN3CCC2CC3)cc1 (stereo not drawn)
  -4.3	1	-2	0.3	-0.2	2.1	.	-10	-1	-8%
Cc1c(C(c2ccc(F)cc2)c2c(O)c3ccccc3oc2=O)c(=O)n(-c2ccccc2)n1C (stereo not drawn)
  .	2	.	.	0.0	-4.3	-8	-3	.	2%

Single entries from above:
Result of `COc1cc(C(=O)N2C[C@H]3C[C@@H](C2)c2cccc(=O)n2C3)cc(OC)c1OC` under rRNA inh HTS OD600: 0
Result of `CSc1ccc(CN2CCN(C(=O)COc3ccc(C)cc3)CC2)cc1` under T cruzi repl: 34

Other results.
Under each structure: rRNA inh HTS RFP	Calb FLC	rRNA inh HTS	MLL AF4-AF9 inh	A1 inh	RanGTP-Impb inh	Beta apoptosis	T cruzi repl	rRNA inh HTS OD600	Vif A3G
CC(=C1C(=O)c2ccccc2C1=O)N1CCN(CCN=Cc2c(O)n(C)c(=O)n(C)c2=O)CC1
  .	-6	.	.	0.0	1.2	-1	14	.	?
Cc1nc2cc(-c3cccc(F)c3)nn2c(C)c1CCC(=O)N1CCC2(CC1)OCCO2
  -3.8	-17	7	.	-0.5	-0.3	-2	4	8	-3%
C/C1=C\[C@@H](C)C/C=C/[C@H]2[C@@H]3O[C@]3(C)[C@@H](C)[C@H]3[C@H](Cc4c[nH]c5ccccc45)NC(=O)[C@]32C(=O)/C=C/C(=O)[C@@H]1O
  .	-2	.	.	11*	?	.	24	.	?
CN(C)CCCN=Cc1c(O)n(CCc2ccc(F)cc2)c(=O)[nH]c1=O
  .	23	.	.	0.1	-1.2	-2	32	.	4%
O=C(c1ccc(-c2ccccc2)cc1)C1CCCN(Cc2ccn[nH]2)C1 (stereo not drawn)
  -2.1	-42	-3	0.5	0.1	-1.1	-3	7	-9	-3%
Cc1cc(O)c2c3c(c(=O)oc2c1)CCC(C)C3 (stereo not drawn)
  2.1	35	0	-3.5	0.0	0.7	22	5	5	0%
CN1C(=O)N(C)C(=O)C2(Cc3cc([N+](=O)[O-])ccc3N(C)C2c2ccccc2)C1=O (stereo not drawn)
  -2.9	35	7	3.7	0.0	-5.2	11	12	5	.
O=P1(NCCCn2cc[n+](Cc3nc4ccccc4[nH]3)c2)C=C(c2ccccc2)OC(c2ccccc2)=C1
  15	7	-2	21	-0.7	-5.5	-4	-1	-23	?
Cc1ccc(N2C(=O)NC(=O)/C(=C\C=C\c3ccco3)C2=O)cc1C
  2.0	-5	7	-0.2	2.5	-6.6	97*	-8	5	.
